# VACV mCherry inh: vaccinia inhibition (mCherry reporter); Vaccinia virus mCherry reporter infection, fluorescence; about a quarter of the inactives have no number; Potency, µM (highest dose often 36.5 µM), inactives show top-dose activity change, negative = inhibition, usual class: inhibitors; 310,000 tested, 0.63% active; active = well fitted inhibition curve with a large enough effect; inconclusive = small, poorly fitted or top-dose-only effect; inactive = no such curve, though single readings can be large or run the other way; tested in A549 cells; also: nearly all actives have a fitted effect of over 35% in size; inactives centre near -10
# VACV Venus inh: vaccinia inhibition (Venus reporter) | Vaccinia virus Venus reporter expression, fluorescence | Potency, µM (doses to about 36.5 µM), inactives show at the top dose activity change, negative = inhibition, usual class: inhibitors | 330,000 tested, 0.46% active; active means well fitted inhibition curve with a large enough effect; inconclusive means small, poorly fitted or top-dose-only effect; inactive means no such curve, though single readings can be large or run the other way; tested in A549 cells; also: nearly all actives have a fitted effect of over 30% in size; inactives centre near -10
# An asterisk follows results filed as active; i = inactive; ? = inconclusive; nt = not tested or not shown; [ ] = another dose, or the depositor's remark. % is scaled to controls: 0 for no effect and ±100 for the full control effect; potency is read from the fitted curve at half-maximal effect. The order is random (roughly 0.82% active in at least one column).
SMILES,VACV mCherry inh,VACV Venus inh
CCCCCc1c(-c2cccc(OC)c2)ncn1CCc1ccccc1OC,-22%,-23%
COc1cccc(CNC(=O)CCC2CCCN(C(=O)C3=CC(=O)CC(C)(C)O3)C2)c1 (configuration not stated),-9%,-9%
CCOCCCNC(=O)c1c(NC(=O)c2cc(=O)c3cc(C)c(C)cc3o2)sc2c1CCC2,-6%,-1%
CCc1ccccc1NC(=O)C1(S(=O)(=O)c2ccc(Cl)cc2)CC1,-3%,0%
Cc1ccc(OCC(=O)NC(=S)Nc2ccc(Br)c(C)n2)cc1,i,-2%
O=C(CSc1nnc(CN2CCCC2)n1-c1ccc(F)cc1)c1ccc2c(c1)OCO2,-24%,-25%
CC(C)CN(CC(C)C)CC(O)COc1ccccc1Br (configuration not stated),-26%,-24%
COc1ccc(C[C@@H]2CN3C(=NC[C@@H]3C)N2C[C@H](C)NC(=O)c2ccc(C)c(Br)c2)cc1,-27%,-25%
Cc1nnc(N2CCC(C(=O)NC(C)C)CC2)c2nn(-c3ccccc3)c(C)c12,-15%,-9%
COC(=O)C1CCN(C(=O)CN2C(=O)NC(CCc3ccccc3)C2=O)CC1 (configuration not stated),nt,5%
Cc1noc(C)c1S(=O)(=O)Nc1ccc2c(c1)C(=O)N([C@H](C)CO)C[C@H](C)[C@@H](CN(C)C(=O)Nc1ccc3c(c1)OCO3)O2,i,-8%
CC1=NN=C(c2ccccc2)C(c2c[nH]c3ccccc23)N1O (configuration not stated),-28%,-7%
CC(=O)c1ccc(NC(=O)CSc2ccc(-c3cccs3)nn2)cc1,-4%,3%
CCOc1cc(C(=O)Nc2cnccn2)cc(OCC)c1OCC,-11%,-23%
CCOc1ccc(OC(=O)c2cn(-c3cccc(OC)c3)c(=O)c3ccccc23)cc1,-14%,-12%
COc1ccc(-c2c(C(=O)c3ccc(Br)cc3)[nH]c(N)c2C(=O)c2ccccc2)cc1OC,-29%,-15%
O=C(N/N=C/c1cccc(O)c1)c1ccc(COc2ccc3c(c2)CCC3)o1,nt,-10%
O=S(=O)(c1ccc(Cl)c(NC(=S)Nc2ccccc2N2CCOCC2)c1)N1CCOCC1,-8%,-3%
CSc1ncccc1C(=O)Nc1ncc(C)s1,i,-12%
CCn1c(COc2cccc(C)c2)nnc1SCC(=O)NC1CCCC1,-12%,-6%
COc1ccccc1OCC(=O)Nn1c(=S)[nH]c2ncccc2c1=O,-15%,-6%
Cc1ccc(S(=O)(=O)N/N=C\c2cn(CC(N)=O)c3ccccc23)cc1,i,-9%
COC(=O)CC1=C(C(=O)OC)C(c2cc(OC)c(OC)cc2OC)C(C#N)=C(N)O1 (configuration not stated),-13%,-14%
C/C(=N/NS(=O)(=O)c1ccc(C)cc1)c1cccc(NC(=O)c2cccc(Cl)c2)c1,nt,?
CC(=O)c1cn(C2OC(CO)C3OC(C)(C)OC32)c(=O)n(C)c1=O (configuration not stated),i,-7%
Cc1cc(C(=O)NNC(=O)c2ccc(C)c([N+](=O)[O-])c2)c(C)o1,-15%,-4%
Cc1ccc(NC(=O)NC(=O)N(c2ccccc2)S(C)(=O)=O)cc1,-11%,-4%
CCCCCCCC(=O)Nc1cc(C(=O)NCc2ccc(C)cc2)ccc1N1CCC2(CC1)CC(c1cccc(Br)c1)=NO2,i,-11%
OC[C@@H]1CN(Cc2ccncc2)C[C@H](n2cnc3c(N4CCOCC4)ncnc32)O1,3%,-10%
OCC[C@@H]1C[C@H](O)[C@@H](O)[C@]2(CCc3ccccc3O2)O1,i,-6%
COc1cc(C(=O)N2CCc3ccccc32)cc(OC)c1OC,-2%,-13%
CCn1c(SCC(=O)c2ccc(Cl)s2)nnc1-c1cccs1,-15%,-3%
CCCC(=O)Nc1ccc(N2CCCCC2)cc1,-23%,-8%
Cn1c(=O)c2c(ncn2CC(=O)N/N=C/C=C\c2ccccc2[N+](=O)[O-])n(C)c1=O,?,0%
O=C(CSc1n[nH]c(=O)[nH]c1=O)N/N=C/c1ccccc1,-8%,-1%
COc1ccc(Nc2nc(-c3cccc([N+](=O)[O-])c3)nc3ccccc23)c(OC)c1,i,-3%
COc1cc(OC)cc(C(=O)N/N=C/c2ccc(OC)c(COc3ccc4ccccc4c3)c2)c1,?,?
O=C(NCc1nc2ccccc2[nH]1)C1=C[C@@H](c2ccc(C(F)(F)F)cc2)C[C@@H](OCc2ccc(CO)cc2)O1,-18%,?
Cc1cc(NC(=O)COC(=O)C2CC(=O)N(c3ccc(C)c(Cl)c3)C2)no1 (configuration not stated),-14%,5%
O=C(NCCO)/C(=C\c1ccco1)NC(=O)c1cccs1,i,-9%
CC(C)c1c(C(=O)NC(c2cccnc2)C(F)(F)F)cnn1-c1nccc(-c2cccs2)n1 (configuration not stated),?,?
COc1ccccc1CNS(=O)(=O)c1ccc2[nH]c3c(c2c1)CCCCC3,-18%,-21%
COc1ccc(S(=O)(=O)N2CCOC2CNC(=O)C(=O)NCCc2ccc(OC)c(OC)c2)cc1 (configuration not stated),i,-19%
CC1(c2nnc(-c3cccc(Cl)c3)o2)CC(c2ccccc2)=NO1 (configuration not stated),-14%,-10%
O=c1oc2ccccc2cc1C1=Nn2c(nnc2-c2cccnc2)SC1,-14%,-2%
Cc1ccc(C(C)NC(=O)c2ccncc2)c(C)c1 (configuration not stated),-5%,-17%
Cc1nnc(SCC(=O)N2CC(=O)Nc3ccccc32)n1Cc1ccccc1,0%,-1%
CCCCCC1C(C(=O)OCC)C(=O)NC1(C(=O)OCC)C(=O)OCC (configuration not stated),-6%,-20%
O=C(CN1CCN(S(=O)(=O)c2ccccc2)CC1)Nc1ccccc1C(=O)NC1CC1,2%,-13%
Cc1ccc(S(=O)(=O)NCc2ccc3c(c2)cc(C)n3C)cc1,21%,25%
CC(C)NS(=O)(=O)c1ccc(CCC(=O)NCc2ccc3c(c2)OCO3)cc1,-10%,-15%
C=C(/C=C/c1ccc(N(C)C)cc1)c1nc2ccccc2s1,-24%,-27%
Cc1c(C(=O)N2CC[C@@H](N3CCC(O)CC3)[C@H](O)C2)[nH]c2ccc(Cl)cc12,-14%,-4%
O=C(NCCNc1ccc([N+](=O)[O-])cc1C(F)(F)F)c1cccc(F)c1,?,?
COc1ccccc1C1CN(CCNC(=O)c2cnsn2)Cc2ccccc2O1 (configuration not stated),-21%,-5%
CCC(C(=O)Nc1c(C)cccc1C)n1c(-c2cnc(C)cn2)nc2ccccc21 (configuration not stated),-2%,-4%
CC1(C)Cc2c(cnn2-c2ccc(F)cc2)C(NC(=O)c2cnccn2)C1 (configuration not stated),-11%,-4%
C/[N+]([O-])=C/c1c(OCc2ccc(Cl)cc2Cl)ccc2ccccc12,4%,-1%
O=S1(=O)CC(N2CCCCC2)CN1C1CCCCC1 (configuration not stated),42%[activator],6%
Nn1c(SCC(=O)NC2CCCC2)nnc1C(F)(F)F,?,-7%

# (list continues)
SMILES,VACV mCherry inh,VACV Venus inh
Cc1ccccc1C(O)c1cccnc1 (configuration not stated),i,-5%
Cc1cc(NC(=O)CSc2nccn2-c2ccc(Cl)cc2)no1,nt,-1%
Cc1ccc(C)c(Nc2cc(C)nc3ncnn23)c1,-22%,-7%
O=C(CCCN1C(=O)/C(=C/c2ccccc2Cl)SC1=S)NCCCN1CCOCC1,175%[activator],292%[activator]
CC(=O)c1cccc(OCC(=O)N(C)CC(=O)Nc2ccc(F)cc2)c1,-9%,-8%
CCOc1ccccc1N1CCN(Cc2c(C)n(C)n(-c3ccccc3)c2=O)CC1,i,-7%
CCCC(C)n1[nH]c(=O)cc1N (configuration not stated),-6%,-6%
COc1cc(S(=O)(=O)N2CCN=C2c2ccccc2)c(OC)cc1Cl,-22%,-19%
COc1ccccc1S(=O)(=O)N(C)C[C@@H]1OCc2cnnn2CCCC(=O)N([C@@H](C)CO)C[C@@H]1C,-7%,-16%
CC(C)C[C@@]12C(=O)N(c3cccc(Br)c3)C(=O)N1[C@H](c1ccc(F)cc1)[C@@H]1C(=O)N(C3CCCCC3)C(=O)[C@@H]12,i,-12%
CCOc1cccc(/C=C2/NC(=O)N(CC(=O)Nc3cccc(C)c3)C2=O)c1O,-10%,-10%
Cc1cccc(C)c1OCC(=O)Nn1c(COc2ccccc2)nc2ccccc2c1=O,-13%,-12%

# In a second layout: four of the compounds above.
molecule | VACV mCherry inh | VACV Venus inh
O=C(CSc1nnc(CN2CCCC2)n1-c1ccc(F)cc1)c1ccc2c(c1)OCO2 | -24% | -25%
O=C(CCCN1C(=O)/C(=C/c2ccccc2Cl)SC1=S)NCCCN1CCOCC1 | 175%[activator] | 292%[activator]
CC(=O)c1ccc(NC(=O)CSc2ccc(-c3cccs3)nn2)cc1 | -4% | 3%
CCCCCC1C(C(=O)OCC)C(=O)NC1(C(=O)OCC)C(=O)OCC (configuration not stated) | -6% | -20%

# (cont.)
SMILES,VACV mCherry inh,VACV Venus inh
Cc1ccc(C(=O)O)cc1N1C(=O)CCCC1=O,-9%,-1%
O=C1C(=Cc2cccc(Cl)c2)CCc2ccccc21,i,-7%
FC(F)(F)c1ccc(CN2C[C@@H]3C(c4ccc(C(F)(F)F)cc4)C4(c5cccnc5)CC3(C4)[C@H]2c2ccccc2)cc1 (some centres not stated),-4%,-29%
CN(C#N)c1nc(N2CCOCC2)nc(N2CCOCC2)n1,i,-7%
C/C(=N\NC(=O)CN1CCN(c2ccc(F)cc2)CC1)c1ccco1,-1%,-16%
Cc1ccc(C)c(Cn2cc(S(=O)(=O)c3ccc(Cl)cc3)c(=O)c3cc(F)ccc32)c1,-8%,-5%
Cc1ccc(S(=O)(=O)NCc2ccccc2)cc1C(=O)N1CC(C)CC(C)C1 (configuration not stated),-28%,-16%
OC1CCN(Cc2ccc3c(c2)CN(Cc2ccc(Oc4ncccn4)cc2)CCO3)CC1,i,-16%
Cc1onc(-c2ccccc2)c1C(=O)Nc1ccc2c(c1)OCCO2,-15%,-2%
O=C(Cc1c(C(=O)O)[nH]c2ccccc12)Nc1cccc(C(F)(F)F)c1,-10%,6%
CCOC(=O)c1ccc2c(c1)nc(-c1ccc(F)cc1)c1nccn12,i,-14%
N#Cc1c2c(c(-c3ccccc3)[nH]c1=O)CCCC2,-12%,-12%
O=C(NC1CC2CCCC(C1)N2S(=O)(=O)c1ccccc1)c1ccccc1 (configuration not stated),-9%,-8%
Cc1cccc(-n2nc(C(=O)Nc3ccccc3)n3c(=O)cc(-c4ccccc4)nc23)c1,-21%,-12%
CCn1c(COc2cccc3cccnc23)nnc1SCC(=O)OC,i,-14%
COc1ccc(C(CNS(=O)(=O)c2ccc(C)cc2)N2CCN(C)CC2)cc1 (configuration not stated),-9%,-25%
Nc1ccn([C@@H]2O[C@H](CNCc3ccc(Oc4cc(-n5cccn5)ncn4)cc3)[C@@H](O)[C@H]2O)c(=O)n1,i,-8%
O=C(CSc1nnc(-c2ccncc2)o1)NCc1ccccc1,i,-8%
O=C(O)/C=C/c1cn(Cc2ccccc2)nc1-c1ccc(Cl)cc1,i,-1%
O=C(CCC(=O)c1cccs1)NNC(=O)c1ccccc1O,-8%,-11%
O=C(O)CN(Cc1ccccc1)S(=O)(=O)c1ccc2c(c1)OCCO2,-29%,-16%
COc1ccc(N2CCCC2)c(NC(=O)COc2ccccc2)c1,?,13%
COc1ccc(CCNC(=O)c2nn(C)c3c2CS(=O)(=O)c2ccccc2-3)c(OC)c1,12%[7.34 µM],0%[7.34 µM]
FC(F)Oc1ccc(/C=N/NC(=S)Nc2cc(C(F)(F)F)ccc2Cl)cc1,-27%,-23%
C[C@H](CO)N1C[C@H](C)[C@@H](CN(C)S(=O)(=O)c2cccs2)Oc2ccc(NS(=O)(=O)c3ccccc3)cc2CC1=O,-20%,-15%
CCOC(=O)C(=O)NCC(c1cccs1)S(=O)(=O)c1ccc(C)cc1 (configuration not stated),-22%,-11%
N#Cc1nc(/C=C/c2ccc(F)cc2)oc1NCc1ccc(F)cc1,-22%,-11%
O=c1c2ccccc2nc2n1CC/C2=C\N1CCN(c2ccc([N+](=O)[O-])cc2)CC1,6%,-9%
N#Cc1c(SCC(=O)Nc2nccs2)sc2c(O)cc(=O)[nH]c12,-14%,-5%
O=C(NNc1ncnc2c1cnn2-c1ccc(F)cc1)c1cccs1,-16%,-19%
COC(=O)C1=C(C)N(CC2CC2)C(=O)N[C@H]1c1ccc(Br)cc1,-11%,-15%
O=C(O)CCC(=O)Nc1nc2nccc(-c3ccccc3)n2n1,i,3%
CC(C)(C)S(=O)(=O)N1C[C@@H]2CC/C=C\C/C=C\2[C@H]1CCO,-8%,-9%
COc1ccc(NC(=O)CS(=O)CC(=O)Nc2ccc(-n3cnnn3)c(C)c2)cc1 (configuration not stated),-3%,-1%
O=C(c1ccco1)N1CCN(c2nc3c(F)cc(F)cc3s2)CC1,i[7.34 µM],-9%[7.34 µM]
O=C(Cn1nc(C(=O)O)c2ccccc2c1=O)Nc1ccccc1C(F)(F)F,i,-23%

# Among those listed so far, eight have a CF3 group:
SMILES,VACV mCherry inh,VACV Venus inh
O=C(NCc1nc2ccccc2[nH]1)C1=C[C@@H](c2ccc(C(F)(F)F)cc2)C[C@@H](OCc2ccc(CO)cc2)O1,-18%,?
CC(C)c1c(C(=O)NC(c2cccnc2)C(F)(F)F)cnn1-c1nccc(-c2cccs2)n1 (configuration not stated),?,?
O=C(NCCNc1ccc([N+](=O)[O-])cc1C(F)(F)F)c1cccc(F)c1,?,?
Nn1c(SCC(=O)NC2CCCC2)nnc1C(F)(F)F,?,-7%
FC(F)(F)c1ccc(CN2C[C@@H]3C(c4ccc(C(F)(F)F)cc4)C4(c5cccnc5)CC3(C4)[C@H]2c2ccccc2)cc1 (some centres not stated),-4%,-29%
O=C(Cc1c(C(=O)O)[nH]c2ccccc12)Nc1cccc(C(F)(F)F)c1,-10%,6%
FC(F)Oc1ccc(/C=N/NC(=S)Nc2cc(C(F)(F)F)ccc2Cl)cc1,-27%,-23%
O=C(Cn1nc(C(=O)O)c2ccccc2c1=O)Nc1ccccc1C(F)(F)F,i,-23%

# Screening data from PubChem.
